# Screening results deposited in PubChem BioAssay by National Center for Advancing Translational Sciences (NCATS).
# NPC1 promoter act: qHTS Assay for NPC1 Promoter Activators; Huh7 NPC1 promoter luciferase reporter, 24 h; Potency, µM (highest dose often 9.22 µM), for the others: top-dose activation, most hits filed as activators; 320,000 tested, 2.4% active;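 note: potency is the fitted concentration of half-maximal effect; % of control where 0% means no effect; nearly all actives have a fitted effect of over 60% in size; reporter is driven by a mutant NPC1 promoter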
#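 Huh7 cells stably carrying NPC1 promoter–luciferase, plated in Opti-MEM with 10% FBS for 2 h, were exposed to compound in DMSO for 24 h at 37 °C; luciferase reagent was added for 10 min and luminescence read.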
# Tb PFK inh: qHTS Assay to Find Inhibitors of T. brucei phosphofructokinase | 330,000 tested, 0.17% active | Potency, µM (highest dose often 57.5 µM), for the others: top-dose activity, negative = inhibition, most hits filed as inhibitors | AID 485367, 2010 | ATP-dependent 6-phosphofructokinase (Trypanosoma brucei brucei), O15648 | T. brucei PFK, ADP-Glo luminescence;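 note: potency is the fitted concentration of half-maximal effect; 0% = uninhibited 1x PFK enzyme wells and -100% = no-enzyme wells; nearly all actives have a fitted effect of over 60% in size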
#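 Activity is normalized to no-enzyme wells (full inhibition) and 1.25 nM enzyme wells (no inhibition). Reaction: 0.5 mM F6P, 0.1 mM ATP, 45 min RT, ADP-Glo luminescence; concentration-response curves fitted and classed by quality.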
# ELG1 genotox: qHTS screen for small molecules that induce genotoxicity in human embryonic kidney (HEK293T) cells expressing luciferase-tagged ELG1; HEK293T ELG1-luciferase reporter, luminescence, 16 h; Potency, µM (top dose mostly 46 µM), without a hit: top-dose activity change, positive = activation, hits mostly activators; 330,000 tested, 1.3% active; AID 504466, 2011; note: potency is the fitted concentration of half-maximal effect; % of control where 0% means no effect; nearly all actives have a fitted effect of over 60% in size
#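 Quantitative HTS format in 1536-well plates. HEK293T ELG1-luciferase reporter cells receive test compound and are incubated 16 hr at 37 °C, 5% CO2; ONE-Glo added, 30 min room temperature, then luminescence read.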
# ELG1 repair inh: qHTS screen for small molecules that inhibit ELG1-dependent DNA repair in human embryonic kidney (HEK293T) cells expressing luciferase-tagged ELG1; HEK293T ELG1-luciferase reporter, luminescence, 16 h; DNA damage induced by 5-fluorouridine; Potency, µM (top dose mostly 46.1 µM), for inactives: at the highest dose activity change, negative = inhibition, most hits filed as inhibitors; 330,000 tested, 2.3% active; note: potency is the fitted concentration of half-maximal effect; % is set by controls: 0 for no effect and ±100 for the full control effect; nearly all actives have a fitted effect of over 55% in size
#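 Reporter activity after DNA damage by 5-fluorouridine is monitored. Compound-treated cells incubate 16 hr at 37 °C, then ONE-Glo is added for 30 min before luminescence reading.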
# BRCA1 expr up: qHTS Assay to Identify Small Molecule Activators of BRCA1 Expression; MCF7-BRCA1-FFLuc reporter, luminescence, 48 h; response scale: scaled: vehicle 0%, 10 µM genistein 100%; Potency, µM (highest dose often 46.1 µM), for the others: at the top dose activation, hits mostly activators; 380,000 tested, 1.1% active; AID 624202, 2012; note: potency is the fitted concentration of half-maximal effect; nearly all actives have a fitted effect of over 80% in size; some results filed as inactive show a strong effect at the top dose
#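 Using MCF7 cells harboring a BRCA1 firefly luciferase reporter, plated 2 h before compound pinning, the screen measured luminescence after 48 h incubation. Responses were normalized to DMSO and 10 microM genistein, then fitted for concentration-effect.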
# Rab9 prom act: qHTS Assay for Rab9 Promoter Activators | Potency, µM (titrated, usually from 9.22 µM), for inactives: at the highest dose activation, negative = inhibition, most hits filed as activators | Huh7 Rab9 promoter-luciferase reporter, luminescence, 24 h | 320,000 tested, 2.8% active | AID 485297, 2010; note: potency is the fitted concentration of half-maximal effect; % of control where 0% means no effect; nearly all actives have a fitted effect of over 60% in size
#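 Huh7 cells stably carrying Rab9 promoter–luciferase reporter, plated 1500 cells/well, compound added after 2 h and incubated 24 h at 37 °C; luciferase luminescence then read after 10 min with detection reagent.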
# TRPV1 ag: HTS Assay for Compounds that Act as Agonists of the Vanilloid Receptor 1 | TRPV1-expressing cells, Fluo-8 calcium influx, agonist mode | activation, % at 8.33 µM | 320,000 tested, 0.19% active; in the data active = activation above about 80%; inconclusive = between about 30% and that limit; note: 0% is about no effect
# Target sequence (Q8NER1 whole entry, looked up): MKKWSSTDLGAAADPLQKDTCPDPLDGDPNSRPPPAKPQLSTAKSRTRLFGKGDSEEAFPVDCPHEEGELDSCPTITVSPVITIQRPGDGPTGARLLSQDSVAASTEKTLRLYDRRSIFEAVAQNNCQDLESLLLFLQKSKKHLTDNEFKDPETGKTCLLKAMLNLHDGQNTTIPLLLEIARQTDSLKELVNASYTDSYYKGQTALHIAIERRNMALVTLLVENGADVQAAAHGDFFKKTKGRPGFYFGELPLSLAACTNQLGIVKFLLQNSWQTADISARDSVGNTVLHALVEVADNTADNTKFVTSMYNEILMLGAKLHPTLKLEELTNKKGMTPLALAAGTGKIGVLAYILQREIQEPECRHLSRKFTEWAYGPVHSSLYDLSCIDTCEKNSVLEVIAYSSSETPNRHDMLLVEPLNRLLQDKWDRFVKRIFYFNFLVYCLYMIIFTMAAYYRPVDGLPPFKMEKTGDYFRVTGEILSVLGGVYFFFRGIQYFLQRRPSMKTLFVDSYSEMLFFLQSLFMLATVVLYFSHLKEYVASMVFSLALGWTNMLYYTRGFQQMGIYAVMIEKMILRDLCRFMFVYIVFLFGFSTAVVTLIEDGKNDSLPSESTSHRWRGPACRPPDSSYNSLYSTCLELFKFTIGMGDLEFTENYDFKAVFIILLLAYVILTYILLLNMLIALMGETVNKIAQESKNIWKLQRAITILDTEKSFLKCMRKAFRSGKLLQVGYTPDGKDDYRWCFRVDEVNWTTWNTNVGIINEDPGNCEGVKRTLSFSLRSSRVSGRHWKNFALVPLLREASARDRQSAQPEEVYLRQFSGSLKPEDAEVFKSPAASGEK
#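 Cells expressing TRPV1 were dye-loaded with Fluo-8 and read kinetically: 10 s baseline, 3 min after compound (agonist portion), then 2 min after EC20 capsaicin (allosteric enhancer portion). Calcium-bound dye fluorescence at 480/520 nm.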
# * marks the source's active call; other numbers are inactive results; ? = inconclusive; · = not tested or not shown; & = joins results of further samples; [ ] = dose if it differs, or a comment. Unless noted, calls come from the whole dose curve; as a rule, active = well fitted curve in the direction sought with a large enough effect; inconclusive = small, poorly fitted or top-dose-only effect, or another doubt; inactive = no such curve, though single readings can be large; an effect the other way counts as inactive or inconclusive.
SMILES,NPC1 promoter act,Tb PFK inh,ELG1 genotox,ELG1 repair inh,BRCA1 expr up,Rab9 prom act,TRPV1 ag
C[n+]1c(-c2ccccc2)cc(-c2ccc(O)cc2)cc1-c1ccccc1,0%,2%,-10%,-10%,-14%,?,1
C=CCN1CCC23c4c5ccc(O)c4O[C@H]2C(=O)CC[C@@]3(O)C1C5 (stereo not given in full),-7%[46.1 µM],·,·,·,·,-11%[46.1 µM],·
CCCCCCC[n+]1ccc(-c2cc[n+](CCCCCCC)cc2)cc1,-31%[inhibitor],1%,-5%,0%,·,-43%[inhibitor],-2
COc1ccc(CCNCc2ccccc2F)cc1,-2%,-1%,0%,12%,56%,3%,4
CC(C)COC(=O)c1ccccc1C(=O)OCC(C)C,-3%,0%,-2%,-6%,-8%,-1%,?
C[C@]12CCC3C(CC[C@H]4C[C@@H](O)CC[C@]34C)C1CCC2=O (stereo not given in full),·,-6%,-2%,-3%,-13%,·,·
CNC(C(=O)c1ccccc1)C(OC(C)=O)c1cccc([N+](=O)[O-])c1 (stereo not given),-3%,3%,-2%,7%,1%,9%,·
NC(N)=NC(=O)c1nc(Cl)c(N)nc1N,1%[46.1 µM],-1%,0%,-4%,-33%&9%&7%,3%[46.1 µM],-3
CC1CCN(CC(=O)c2ccc3c(c2)OCCO3)CC1,?,-1%,?,?,·,?,0
COc1ccc(-c2cc(-c3ccccc3)[n+](C)c(-c3ccccc3)c2)cc1,-36%[inhibitor],0%,-13%,?,-56%,-31%[inhibitor],4
COc1ccc(/C=N\N=C(N)N)cc1,-10%,-3%,-1%,?,-12%,-5%,4
O=S(=O)(O)c1cc(O)ccc1O,-4%,19%,4%,24%,5%,1%,16
CN1CC[C@@]23CCCC[C@@H]2[C@@H]1Cc1ccc(O)cc13,2%,0%,-1%,-6%,0%,-7%,0
CCCCCCC(=O)c1c(O)n(-c2ccccc2OC)c(=O)[nH]c1=O (tested in a mixture with another compound),-3%,3%,-1%,6%,-11%,-1%,-3
COC1CCCCC1NCCc1ccccc1 (stereo not given),1%,0%,7%,0%,-10%,-8%,-4
C=CCOC(=O)c1ccccc1N,1%,-8%,3%,2%,4%,2%,0
CN1/C(=C\C=Nc2ccccc2)C(C)(C)c2ccccc21,1%,-7%,0%,-2%,-41%,2%,4
C[C@]12CC[C@H](O)C[C@@H]1CC[C@@H]1[C@@H]2CC[C@]2(C)C(=O)CC[C@@H]12,-1%,-2%,-5%,-2%,2%,-6%,?
NN=C(N)N,1%[46.1 µM],0%,-12%,-5%,-10%,-1%[46.1 µM],0
C=CCN1CC[C@]23c4c5ccc(O)c4OC2C(=O)CC[C@@]3(O)C1C5 (stereo not given in full),0%,1%,0%,-1%,11%,-5%,1
CN(C)c1ccccc1,·,·,·,·,2%,·,·
O=[N+]([O-])c1cc(Cl)c(Cl)cc1Cl,9%,4%,3%,13%,-11%,-2%,-2
Clc1ccc(C(OCCN2CCCCC2)c2ccccc2)cc1 (stereo not given),-6%,-5%,-5%,2%,-1%,-3%,0
CN(CCc1ccccc1)Cc1c[nH]c2ccccc12,-4%,-8%,8%,-17%,-79%,-4%,0
C=CCN1CC[C@]23c4c5ccc(O)c4O[C@H]2C(=O)CC[C@@]3(O)[C@H]1C5,2%&-6%,1%&-5%,-5%&2%,9%&-4%,12%&1%,-1%&11%,-5&-4

# Reprinted from the results shown, 4 compounds:
SMILES,NPC1 promoter act,Tb PFK inh,ELG1 genotox,ELG1 repair inh,BRCA1 expr up,Rab9 prom act,TRPV1 ag
CN1CC[C@@]23CCCC[C@@H]2[C@@H]1Cc1ccc(O)cc13,2%,0%,-1%,-6%,0%,-7%,0
CCCCCCC(=O)c1c(O)n(-c2ccccc2OC)c(=O)[nH]c1=O (tested in a mixture with another compound),-3%,3%,-1%,6%,-11%,-1%,-3
COC1CCCCC1NCCc1ccccc1 (stereo not given),1%,0%,7%,0%,-10%,-8%,-4
C=CCOC(=O)c1ccccc1N,1%,-8%,3%,2%,4%,2%,0

# 3 records picked at random from those above, as already listed:
SMILES,NPC1 promoter act,Tb PFK inh,ELG1 genotox,ELG1 repair inh,BRCA1 expr up,Rab9 prom act,TRPV1 ag
O=[N+]([O-])c1cc(Cl)c(Cl)cc1Cl,9%,4%,3%,13%,-11%,-2%,-2
CNC(C(=O)c1ccccc1)C(OC(C)=O)c1cccc([N+](=O)[O-])c1 (stereo not given),-3%,3%,-2%,7%,1%,9%,·
CCCCCCC[n+]1ccc(-c2cc[n+](CCCCCCC)cc2)cc1,-31%[inhibitor],1%,-5%,0%,·,-43%[inhibitor],-2

# Going on with the list.
SMILES,NPC1 promoter act,Tb PFK inh,ELG1 genotox,ELG1 repair inh,BRCA1 expr up,Rab9 prom act,TRPV1 ag
O=P1(NCCCl)OCCCN1CCCl (stereo not given),6%,-5%,-4%,6%,4%,1%,1
C[C@]12CCC3[C@@H](CC[C@H]4C[C@@H](O)CC[C@]34C)C1CCC2=O (stereo not given in full),-5%,-2%,-1%,11%,6%,1%,?
CN1C(=O)CN=C(c2ccccc2)c2cc(Cl)ccc21,-3%,-3%,·,·,·,1%,18
Clc1ccc(C(Cn2ccnc2)OCc2csc3c(Cl)cccc23)c(Cl)c1 (stereo not given),-2%,-5%,3%,?,-39%,-8%,15
C[C@]12CC[C@@H](O)C[C@@H]1CC[C@@H]1[C@@H]2CC[C@]2(C)C(=O)CC[C@@H]12,0%,-4%,·,·,-12%,-4%,4
c1ccc(-c2[nH]c(-c3ccccc3)[n+](CC3CO3)c2-c2ccccc2)cc1 (stereo not given),-2%,-1%,-8%,23µM*,-76%,-3%,15
CC[n+]1c(/C=C/C=C/c2ccc(N(C)C)cc2)sc2ccccc21,-37%[inhibitor],-18%,-14%,?,-76%,-38%[inhibitor],0
O=C(COc1ccc(Br)cc1)N1CCN(Cc2c[nH]c3ccccc23)CC1,-2%,-9%,0%,?,-88%,-3%,26
C[n+]1c(-c2ccccc2)cc(CCCCc2cc(-c3ccccc3)[n+](C)c(-c3ccccc3)c2)cc1-c1ccccc1,-6%,?,-7%,?,-53%,0%,-2
CCCCCCC(=O)c1c(O)n(-c2ccccc2OC)c(=O)[nH]c1=O,-2%,4%,1%,-2%,-8%,-4%,0

# Some of these compounds in order of number of heavy atoms, falling:
SMILES,NPC1 promoter act,Tb PFK inh,ELG1 genotox,ELG1 repair inh,BRCA1 expr up,Rab9 prom act,TRPV1 ag
Clc1ccc(C(Cn2ccnc2)OCc2csc3c(Cl)cccc23)c(Cl)c1 (stereo not given),-2%,-5%,3%,?,-39%,-8%,15
CN1C(=O)CN=C(c2ccccc2)c2cc(Cl)ccc21,-3%,-3%,·,·,·,1%,18
O=P1(NCCCl)OCCCN1CCCl (stereo not given),6%,-5%,-4%,6%,4%,1%,1

# Only part of the results is shown (hit frequency here may not be typical).
